HSD17B inh: qHTS Assay for Inhibitors of HSD17B4, hydroxysteroid (17-beta) dehydrogenase 4 | recombinant HSD17B10, NADH fluorescence kinetic; many of its hits are not listed in these tables | 75,000 tested, 7.6% active | 3-hydroxyacyl-CoA dehydrogenase type-2 (Homo sapiens), Q99714 | Potency, µM (series often up to 57.1 µM), for the others: top-dose activity change, negative = inhibition, most hits filed as inhibitors; active = well fitted inhibition curve with a large enough effect; inconclusive = small, poorly fitted or top-dose-only effect; inactive = no such curve, though single readings can be large or run the other way;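 also: the protocol describes HADH2 (HSD17B10) and not the HSD17B4 of the title; nearly all actives have a fitted effect of over 70% in size; most hits overshoot -100% by far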
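Enzyme plus compound, 15 min room temperature; substrate mix added (NAD+ 1 mM, beta-hydroxybutyryl-CoA 90 uM final); plates read kinetically for NADH fluorescence. HADH2 was His-tagged, E. coli-derived, 20 nM.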
The depositor's hits bear a star; u = inconclusive; & = joins results of further samples; [ ] = remark or other dose. % is scaled to controls: 0 for no effect and ±100 for the full control effect; potency is read from the fitted curve at half-maximal effect. Not all compounds are listed; count on the stated rates, not on these rows.

SMILES	HSD17B inh
CC(C)Oc1ccc(N2CC(C(=O)Nc3ccc4c(c3)OCO4)CC2=O)cc1 (stereo not drawn)	12%
CCC(SCC(=O)OC)C(=O)Nc1nnc(C(C)C)s1 (stereo not drawn)	-3%
Cc1cc(NC(=O)CS(=O)(=O)c2cn(Cc3cccc(F)c3)c3ccccc23)no1	-10%
CCC(=O)Nc1cc(C)c(NC(=O)CCc2ccccc2)cn1	u
C=CCn1cc(Cl)c(=O)n(CC=C)c1=O	-4%
O=C1CCCc2c1[nH]c1c(Br)cccc21	u
Cn1c(CCN2CCCCC2)nc2cc(NC(=O)NC3CCCCC3)ccc21	u
CCN(C(=O)CN1CCCc2ccccc21)c1c(N)n(Cc2ccccc2)c(=O)[nH]c1=O	11%
COc1ccc(OC)c(S(=O)(=O)Nc2ccc(OCC(=O)O)cc2)c1	11%
COCC(=O)N1CCC2(CCN(Cc3ccc(C#N)cc3)CC2)CC1	7%
Cc1ccc(S(=O)(=O)N2CCN(S(=O)(=O)N(C)C)CC2)cc1	4%
N#Cc1nc(-c2ccco2)oc1NCc1ccco1	32µM*
O=C(COC(=O)c1ccc(Br)o1)NCCCc1ccccc1	-1%
O=C(C1CCN(S(=O)(=O)c2cccc3cccnc23)CC1)N1CCN(C2CCCC2)CC1	3%
Cc1nnc(SCC(=O)N2CCC(C(=O)Nc3nccs3)CC2)n1Cc1ccccc1	0%
O=C(O)/C=C/c1cccc(B(O)O)c1	6%
Nc1nnnn1/N=C/c1ccccc1OCc1ccc(Cl)cc1Cl	u
Cn1c(=O)oc2cc(S(=O)(=O)N3CCC(C(=O)NCc4cccs4)CC3)ccc21	11%
c1ccc(N2CCN(c3ncnc4c3oc3ccccc34)CC2)cc1	u
O=C(Nc1cccc(OC(F)(F)F)c1)c1ccc(Br)o1	-17%
Brc1ccc(-c2cnc(-c3cccs3)o2)cc1	32µM*
CCC(C)Nc1nc(OCC(F)(F)F)nc(OCC(F)(F)F)n1 (stereo not drawn)	-4%
Cc1ccc2c(c1)cc(CN(Cc1ccco1)C(=O)COc1ccccc1)c1nnnn12	32µM*
COc1ccc(-c2cc(C(=O)Nc3ccc(C)cc3)no2)cc1	13µM*
O=C(Cn1c(=O)oc2ccccc21)c1ccccc1	9%
CN(C)/C=C1/C(=O)Nc2ccccc21	-6%
CCCn1cc(SCC(=O)NCc2ccco2)c2ccccc21	-4%
CC(C)(C)OC(=O)N[C@H](Cc1ccccc1)C(=O)N1CCC(C(=O)O)CC1	4%
CCN(C(=O)CSc1ccc2c(c1)OCCO2)C1CCS(=O)(=O)C1 (stereo not drawn)	1%
CC1(C)Cc2cccc(OCC(O)CN3CCN(c4ccccn4)CC3)c2O1 (stereo not drawn)	7%
CN(C)CCNC(=O)c1coc(=O)c(Br)c1	32µM*
CC(C)NC[C@@H](O)COc1ccc(COCCOC(C)C)cc1	-8%
CCC(=O)Nc1nonc1-c1nc2ccccc2n1CC(C)C	32µM*
COc1ccc(CN2CCN(C)CC2)cc1OCc1ccccc1	9%
c1ccc(CC2CCN(Cc3nc(-c4ccccc4)no3)CC2)cc1	-6%
NCC(=O)CCC(=O)O	1%
Cc1nc2[nH]c(=O)c3c(n2n1)NC1=C(C(=O)CC(C)(C)C1)C3c1ccc(F)cc1 (stereo not drawn)	32µM*
C=CCn1c(NCCc2ccccc2)nc2c1c(=O)n(C)c(=O)n2C	3%
O=C(Cc1cccs1)Nn1c(Cc2cccs2)nc2ccccc2c1=O	-6%
Cc1ccccc1-c1nccc(NCCN2CCOCC2)n1	-8%
Nc1ncnc2nc(SCC(=O)N3CCN(c4ccccc4)CC3)[nH]c12	9%
COc1ccc(Cc2nnc(SCc3nc4ccccc4c(=O)[nH]3)n2C)cc1	13%
COc1ccc(-c2cc(C(F)(F)F)n3nc(C(=O)O)nc3n2)cc1	u
CC(C)c1cc(C(=O)NC2CCCCC2)no1	-1%
CCN1CCN(Cc2nc3c(c(=O)n(C)c(=O)n3C)n2CCCc2ccccc2)CC1	-7%
CC1(C)Cc2c(C#N)c(N)sc(=S)c2CS1	25µM*
COC(=O)c1c(NC(=O)CN2CCC(C(N)=O)CC2)c2c(C)cccc2n1C	0%
O=C(CC1Nc2ccccc2NC1=O)NCC1COc2ccccc2O1 (stereo not drawn)	u
Cc1ccc(C)c(N)c1	5%
CC(=O)NC(C)(C)C1CC=C(C)/C(=N\O)C1 (stereo not drawn)	0%
Cc1cc(C)c(O)c(-c2cc(C(=O)Nc3ccc(S(=O)(=O)N4CCOCC4)cc3)[nH]n2)c1	-2%
C[C@@](N)(/C=C\c1ccccc1)C(=O)O	1%[11.4 µM]
CC(=O)Nc1ccc(S(=O)(=O)NCc2csc(-c3cccnc3)n2)cc1	-6%
O=C(c1ccco1)N1CCC2(CC1)CN(C(c1ccccc1)c1ccccc1)C2	-6%
CC(N)=NCc1cccc(CN)c1	2%&-6%
Cc1ccccc1NC(=O)CN(c1ccc(F)cc1)S(C)(=O)=O	7%
CN1CC[n+]2c(CN3C(=O)c4ccccc4C3=O)csc21	7%
Cc1ccc(C(=O)Nc2ccccc2C(=O)NC2CCCCC2)cc1S(=O)(=O)N1CCOCC1	u
O=C(Nc1c2c(nn1-c1ccc(F)cc1)CS(=O)C2)C12CC3CC(CC(C3)C1)C2 (stereo not drawn)	12%
O=C(c1cccc(C(=O)N2CCN(Cc3ccccc3)CC2)c1)N1CCN(Cc2ccccc2)CC1	0%

Next part
SMILES	HSD17B inh
c1ccc(-c2oc3ncnc(NCCCN4CCOCC4)c3c2-c2ccccc2)cc1	32µM*
CCOc1ccc(Cn2nnc(C(=O)Nc3cc(OC)cc(OC)c3)c2N)cc1	u
CCN(CC)c1ccc(NC(=O)CSc2nnc(N)s2)cc1C	5%
O=C(c1csnn1)N1CCC2(CC1)CN(c1ncccn1)C2	u
COc1cccc(-c2nc(-c3ccccn3)no2)c1OC	3%
COc1ccc(CNC(=O)CN(C(=O)CCC(=O)Nc2ccccn2)c2ccccc2OC)cc1	3%
Cn1c(=O)c2c(nc(SCCN3CCOCC3)n2Cc2ccc(F)cc2)n(C)c1=O	1%
O=C(CCc1nc(-c2ccccc2F)no1)NC1CCCCC1	5%
Cc1ccc2cc3cc(C(=O)NCCN4CCOCC4)oc3nc2c1	25µM*
CCCCNC(=O)NC1C(NC(=O)NCCCC)N(C)C(=O)N1C (stereo not drawn)	2%
O=C1CC(c2nc3ccccc3[nH]2)CN1c1ccccc1F (stereo not drawn)	2%
CCOC(=O)C1CCCN(C(=O)CCn2nc(-c3ccccc3)ccc2=O)C1 (stereo not drawn)	-5%

13 structures out of the list, ordered by number of heavy atoms, high to low.
SMILES	HSD17B inh
O=C(c1cccc(C(=O)N2CCN(Cc3ccccc3)CC2)c1)N1CCN(Cc2ccccc2)CC1	0%
COc1ccc(CNC(=O)CN(C(=O)CCC(=O)Nc2ccccn2)c2ccccc2OC)cc1	3%
Cc1ccc(C(=O)Nc2ccccc2C(=O)NC2CCCCC2)cc1S(=O)(=O)N1CCOCC1	u
c1ccc(-c2oc3ncnc(NCCCN4CCOCC4)c3c2-c2ccccc2)cc1	32µM*
Cn1c(=O)c2c(nc(SCCN3CCOCC3)n2Cc2ccc(F)cc2)n(C)c1=O	1%
CCOc1ccc(Cn2nnc(C(=O)Nc3cc(OC)cc(OC)c3)c2N)cc1	u
CCOC(=O)C1CCCN(C(=O)CCn2nc(-c3ccccc3)ccc2=O)C1 (stereo not drawn)	-5%
Cc1ccc2cc3cc(C(=O)NCCN4CCOCC4)oc3nc2c1	25µM*
CCCCNC(=O)NC1C(NC(=O)NCCCC)N(C)C(=O)N1C (stereo not drawn)	2%
CCN(CC)c1ccc(NC(=O)CSc2nnc(N)s2)cc1C	5%
O=C1CC(c2nc3ccccc3[nH]2)CN1c1ccccc1F (stereo not drawn)	2%
COc1cccc(-c2nc(-c3ccccn3)no2)c1OC	3%
CC(N)=NCc1cccc(CN)c1	2%&-6%

Four entries out of the list, sorted by length of the SMILES, ascending.
SMILES	HSD17B inh
O=C(CCc1nc(-c2ccccc2F)no1)NC1CCCCC1	5%
CCN(CC)c1ccc(NC(=O)CSc2nnc(N)s2)cc1C	5%
c1ccc(-c2oc3ncnc(NCCCN4CCOCC4)c3c2-c2ccccc2)cc1	32µM*
Cn1c(=O)c2c(nc(SCCN3CCOCC3)n2Cc2ccc(F)cc2)n(C)c1=O	1%

Continued.
SMILES	HSD17B inh
CC12C(=O)N(n3cnnc3)C(=O)C1C1C=CC2C1 (stereo not drawn)	11%
O=C(O)Cc1cccnc1	-2%[11.4 µM]
CCc1ccc(NC(=O)C2CCCCC2C(=O)O)cc1 (stereo not drawn)	1%
CCCn1c(SCCN2C(=O)c3ccccc3C2=O)n[nH]c1=O	9%
O=C(c1ccco1)N1C2C=CC(C2)C1(C(F)(F)F)C(F)(F)F (stereo not drawn)	0%
CC(=O)c1ccc(OC(=O)c2ccc(Br)o2)cc1	5%
CCCCN(C(=O)NC(=O)Nc1ccccc1OCC)S(C)(=O)=O	-7%
Cc1ccc(NC(=O)C2CCCN2S(=O)(=O)c2ccc(F)cc2)c(C)c1 (stereo not drawn)	1%
COc1ccc(C(c2nnnn2C2CCCCC2)N2CCN(c3ccccc3)CC2)cc1 (stereo not drawn)	12%
COc1ccc(NC(=O)CSc2nnc(CNC(=O)c3ccco3)o2)c(OC)c1	4%
CN1CCN(S(=O)(=O)c2ccc(Br)s2)CC1	10%
O=C(Nc1cccc2c1CCCC2)C1CCN(C(=O)NC2CCCCC2)CC1	-3%
CCOC(=O)c1c(C)c(C(=O)NCC2CCCO2)c(C)n1CC (stereo not drawn)	-3%
Cn1nc(-c2ccc(C(=O)Nc3cccnc3)cc2)c2ccccc2c1=O	-4%
Cc1nc(N)c(C#N)c(-c2cccnc2)c1C	32µM*
COc1ccc(N2CCN(CCCNC(=O)c3cc4sccc4n3C)CC2)cc1	7%
CC(Oc1ccc(Cl)cc1Cl)c1nc(-c2ccccn2)no1 (stereo not drawn)	-6%
O=C(SCc1cccc2ccccc12)c1ccc(Cl)cc1	-3%[11.4 µM]
CCn1c(SCC(=O)NCCOC)nc2sc3c(c2c1=O)CCCC3	-3%
Cn1c(=O)c2c(nc(Br)n2C)n(C)c1=O	-3%
Cn1cnnc1SCc1ccc(C#N)cc1	3%
C/C(CCN1CCc2nc(-c3ccccc3)c(-c3ccccc3)cc2C1)=N\OC[C@@H](C)[C@H](OCc1ccccc1)C(C)C	2%[11.4 µM]
Cc1ccc(C(C)C)c(OCCNS(C)(=O)=O)c1	4%
CCOC(=O)NCc1ccc(Cl)c(Cl)c1	1%
Cc1cc(C(=O)Nc2nc3c(s2)CCCC3)no1	4%
NC(=NCCCCCCN=C(N)/N=C(\N)Nc1ccc(Cl)cc1)/N=C(\N)Nc1ccc(Cl)cc1	-2%
CCC(C)N1CC23C=CC(O2)C(C(=O)OCc2ccccc2)C3C1=O (stereo not drawn)	3%
O=C(NCc1ccncc1)/C(=N/O)c1ccccc1	19%
C=CCN=C1SC(C)C(=O)N1S(=O)(=O)c1ccccc1 (stereo not drawn)	-2%
CCc1nnc(NC(=O)CCN2C(=O)c3ccccc3C2=O)s1	-8%
CCOC(=O)N1CCN(C(=O)c2ccc(C)c(S(=O)(=O)Nc3ccccc3)c2)CC1	25µM*
Cc1ccc(NS(=O)(=O)c2ccc(CCC(=O)O)cc2)cc1	5%
O=C1C2=CC[C@H]3C(=O)N(C[C@@H]4CCCO4)C(=O)[C@@H]3[C@@H]2[C@H](O)[C@@H]2O[C@H]12	-6%[11.4 µM]
CCc1ccc2c(CN(CC)Cc3nc4ccccc4c(=O)[nH]3)cc(=O)oc2c1	-2%
O=C(Nc1ccccc1N1CCCCC1)c1ccc2nccnc2c1	-16%
COc1ccc(N2C(=O)CC(NC3CC3)C2=O)cc1 (stereo not drawn)	-6%
COC(=O)CSc1nnc(-c2ccc(S(=O)(=O)N3CCCCC3)cc2)o1	-3%
COc1ccccc1NC(=O)C1C2C=CC(O2)C1C(=O)O (stereo not drawn)	-3%
CCOc1ccccc1NC(=O)Nc1cc(OC)ccc1OC	-23%
Cc1cccc(/N=C/c2c(O)[nH]c3ccccc23)n1	u
Cc1sc2nc(SCC(=O)NCc3cccs3)[nH]c(=O)c2c1C	2%
CNC(=O)OCc1cccc(COC(=O)NC)n1	-11%
CCOC(=O)Nc1ccc(S(=O)(=O)Nc2cc(C)on2)cc1	5%
O=C(COC(=O)c1ccc(Cl)c(S(=O)(=O)N2CCCC2)c1)NC1CCCC1	12%
CC(C)CCn1c(N2CCN(c3cccc(Cl)c3)CC2)nc2c1c(=O)[nH]c(=O)n2C	8%
Cc1nn(-c2ccccc2)c2nc(=O)n(-c3ccccc3)cc12	1%
O=C(C1CCCN1S(=O)(=O)c1ccc(Cl)cc1)N1CCOCC1 (stereo not drawn)	6%
CCOC(=O)c1c(N)sc(C(=O)N(C)C)c1C	4%
COCCNC(=O)[C@H](C)[C@@H]1C[C@@]1(C)[C@@H](NC(=O)OCc1ccccc1)c1ccccc1	-6%
CCOc1ccc(N2CC(C(=O)Oc3ccccc3)CC2=O)cc1 (stereo not drawn)	0%
Cc1ccc(NC(=O)c2cnn(-c3ccccc3)c2NC(=O)c2ccco2)cc1	6%
COC(=O)c1ccccc1NC(=O)C1CCCN(c2nnc(-n3cccc3)s2)C1 (stereo not drawn)	u
Cc1c(Cl)c(S(N)(=O)=O)cc(S(N)(=O)=O)c1NC(=O)c1ccc(Cl)cc1	8%[11.4 µM]
Cc1n[nH]c(C)c1S(=O)(=O)N1CCCC(C(=O)N2CCc3ccccc32)C1 (stereo not drawn)	-10%
COc1ccc(COC2OC[C@]3(C)[C@H]4C5=C(CN3C(=O)OC(C)(C)C)[C@H](C)C(CO)C(CO)C5CC[C@@H]24)cc1 (stereo partly drawn)	0%
COc1ccc(N2CCN(C(=O)C34CCC(C)(C(=O)C3)C4(C)C)CC2)cc1 (stereo not drawn)	3%
O=C1C=CC(=C(c2ccc(O)cc2)c2ccc(O)cc2)C=C1	-18%
